# Screening results (PubChem BioAssay)
# CapD inh: blocks the Bacillus anthracis CapD enzyme; purified CapD enzyme, fluorescence intensity read-out; hits give low values; some hits fall short of the stated cut; z-score (no concentration beside the values); actives 0.23% (n = 140,000); AID 492967;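 active = z-score under -4 in either of two replicates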;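 also: stock transfer was 100 nL into about 40 µL; score is relative to mean and spread of the plate; one replicate is shown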
# AID504770: growth inhibitors of E. coli YBA685 in a screen for V. cholerae RctB (chromosome II replication) inhibitors; AID 504770; z-score (test concentration not listed); actives 0.27% (n = 130,000); E. coli YBA685 rctB-dependent plasmid, OD600 growth, 3 h; hits give low values;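 active = z-score under -2 on both plates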;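 also: wells of about 30 µL received 100 nL stock; score is relative to mean and SD of the test wells; the first replicate is given; strong numbers were not always called active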
# Active calls of the source: *; . = not tested or not shown. A portion of the library; the hit share may differ from the screen's.
SMILES,CapD inh,AID504770
N#Cc1ccc(COC(=O)CCN2C(=O)COc3ccccc32)cc1,.,-0.25
CSC1=C(C#N)C(c2ccc(Cl)cc2)CC(=O)N1 (centres undefined),.,-0.35
O=C(Nc1ccccc1C(F)(F)F)c1ccsc1,0.325,1.1
O=S(=O)(c1c(Cl)sc(Cl)c1Br)N1CCOCC1,-0.37,.
Cc1noc2ncnc(N3CCCC(C(=O)Nc4nccs4)C3)c12 (centres undefined),-0.405,-0.8
CCC(=O)C1(Sc2nc3ccccc3[nH]2)CC(C)(C)OC1=O (centres undefined),0.11,-0.4
c1ccc2cc(Nc3ncnc4[nH]ncc34)ccc2c1,16.2,-0.25
COc1cccc(NC(=O)c2ccccc2N(C)C(=O)CCC(=O)Nc2cccnc2)c1,.,-0.35
COc1ccc(NC(=S)NCC(c2ccco2)N(C)C)cc1 (centres undefined),.,1.1
O=C(NCCN1CCOCC1)c1ccc(CS(=O)c2ccc(Br)cc2)o1 (centres undefined),0.31,0.95
Cn1c(CNc2cccc(C(F)(F)F)c2)n[nH]c1=S,.,-0.25
C=CCOc1ccc(Cl)cc1C(=O)O,.,-1.55
Cc1sc(-c2cccnc2)nc1OC(=O)c1cccc(C(F)(F)F)c1,-0.775,.
COc1ccccc1-n1c(/C=C2\C(=O)N(C)c3ccc(Br)cc32)nc2ccccc2c1=O,0.035,.
C=CCn1c(SC(C)C(=O)N2CCCC2)nc2scc(C3CC3)c2c1=O (centres undefined),.,-0.8
CC(=O)Nc1ccc(N/C=C2/CCCCC2=O)cc1,-0.72,0.7
CC(C)N(C(=O)C12CC3CC(CC(C3)C1)C2)c1ccccn1,0.645,0.35
CCC(=O)OC1N=C(c2ccccc2Cl)c2cc(Br)ccc2NC1=O (centres undefined),-0.565,.
COCc1cc(N2CCN(c3ccccc3F)CC2)nc(-c2ccccc2)n1,-0.43,.
CCc1nc2ccc(C(=O)NCCN3CCCCC3C)cc2nc1CC (centres undefined),0.355,0.35

# 15 structures from above, arranged by length of the SMILES, falling.
SMILES,CapD inh,AID504770
COc1ccccc1-n1c(/C=C2\C(=O)N(C)c3ccc(Br)cc32)nc2ccccc2c1=O,0.035,.
COc1cccc(NC(=O)c2ccccc2N(C)C(=O)CCC(=O)Nc2cccnc2)c1,.,-0.35
C=CCn1c(SC(C)C(=O)N2CCCC2)nc2scc(C3CC3)c2c1=O (centres undefined),.,-0.8
Cc1sc(-c2cccnc2)nc1OC(=O)c1cccc(C(F)(F)F)c1,-0.775,.
CCC(=O)OC1N=C(c2ccccc2Cl)c2cc(Br)ccc2NC1=O (centres undefined),-0.565,.
CCC(=O)C1(Sc2nc3ccccc3[nH]2)CC(C)(C)OC1=O (centres undefined),0.11,-0.4
N#Cc1ccc(COC(=O)CCN2C(=O)COc3ccccc32)cc1,.,-0.25
Cc1noc2ncnc(N3CCCC(C(=O)Nc4nccs4)C3)c12 (centres undefined),-0.405,-0.8
CCc1nc2ccc(C(=O)NCCN3CCCCC3C)cc2nc1CC (centres undefined),0.355,0.35
Cn1c(CNc2cccc(C(F)(F)F)c2)n[nH]c1=S,.,-0.25
CSC1=C(C#N)C(c2ccc(Cl)cc2)CC(=O)N1 (centres undefined),.,-0.35
c1ccc2cc(Nc3ncnc4[nH]ncc34)ccc2c1,16.2,-0.25
CC(=O)Nc1ccc(N/C=C2/CCCCC2=O)cc1,-0.72,0.7
O=C(Nc1ccccc1C(F)(F)F)c1ccsc1,0.325,1.1
C=CCOc1ccc(Cl)cc1C(=O)O,.,-1.55

# (list continues)
SMILES,CapD inh,AID504770
COc1ccc(C2CC(c3ccccc3)=NN2C(=O)c2ccc(C)cc2)cc1 (centres undefined),2.32,.
C=CCN1C(=O)C2(OCCCO2)c2ccccc21,.,-0.5
O=S(=O)(NC1CCN(Cc2ccccc2)CC1)c1ccc(Br)cc1,0.62,.
N#Cc1ccc(CSc2nnc(N3CCOCC3)n2-c2ccccc2)cc1,.,0.2
CCSCCOC(=O)C1=C(C)NC2=C(C(=O)CC(c3ccc(OC)cc3)C2)C1c1ccccc1F (centres undefined),52.5,.
NC(=O)c1ccccc1NS(=O)(=O)c1cccs1,-1.06,0.1
Nc1c(C(=O)c2ccc(Br)s2)oc2ccc(Br)cc12,-1.1,.
N#Cc1ccc(-c2cn3cccnc3n2)cc1,88.2,-0.25
Cc1ccc(CNC(=O)c2ccccc2C(=O)O)cc1,-0.07,-0.45
CCN1CCN(Cc2ccc(NC(=O)Nc3ccc(SC)cc3)cc2)CC1,0.3,0.15
COc1ccc(NC(=O)Cn2ccc3c(OC)cccc3c2=O)cc1,.,-0.4
COc1ccc(-c2nc3c4c(-c5ccccc5)c(-c5ccccc5)oc4ncn3n2)cc1OC,44.5,.
O=C1Nc2ccc(Br)cc2/C1=C/C(=O)c1ccc(-c2ccccc2)cc1,-0.37,.
CCN(CC)c1ccc(/C=C2\CC/C(=C\C(C)C)C2=O)cc1,-0.945,-0.5
O=C1OC(c2ccccc2)C(O)(c2ccccc2)C12CCCC2 (centres undefined),-0.13,0.8
O=C1CCN(c2cc(Nc3cccc(F)c3)c3c4c(onc24)-c2ccccc2C3=O)CC1,0.36,0.55
CCCCC(=O)Nc1cccc2c1C(=O)N(c1ccccc1)C2=O,0.025,-0.6
O=C(O)c1ccc(NS(=O)(=O)c2ccc3nnn(O)c3c2)cc1,.,0.9
COc1ccc(-c2nnsc2NC(=O)c2ccccc2CO)cc1,-0.55,0.4
COc1ccc(C(=O)CN2C3=NCCCN3c3ccccc32)cc1OC,0.15,.
CCSc1nnc(-c2c[nH]c3ccccc23)n1-c1cccc(OC)c1,-0.3,-0.4
O=C(NCc1ccco1)c1ccc2c(=O)n(CC3CCCO3)c(=S)[nH]c2c1 (centres undefined),-0.735,.
Cn1nc(-c2ccccc2)c(-c2nc(-c3ccc(Cl)cc3)no2)c1Cl,0.215,.
N=C1c2ccccc2CN1Cc1ccc(CN2Cc3ccccc3C2=N)cc1,.,-0.3
N/C(CC(=O)Nc1ccccn1)=N\O,.,0.1
Cc1cccc(C(=O)N(C)C2CCCCC2)c1C,-0.755,-0.4
CN(Cc1ccc(-c2ccc(Br)cc2)o1)C(=O)c1ccc(S(N)(=O)=O)cc1,.,0.2
O=C(COCc1cc(-c2ccc(F)cc2)on1)NCC1CCCO1 (centres undefined),-0.635,-1.8
C=CCSC1=C(C#N)C(c2cccc(Cl)c2Cl)CC(=O)N1 (centres undefined),1.73,-0.75
COc1ccc(OC)c(NC(=O)CSc2cn(C)c3ccccc23)c1,.,0.45
CCOC(=O)Nc1ccc2c(COC(=O)c3cc(-c4ccco4)nc4ccccc34)cc(=O)oc2c1,.,0.1
CCCCNC(=O)CSc1nc2ccc(N3C(=O)c4ccccc4C3=O)cc2s1,0.435,.
Cc1ccc(C=Nc2ccccc2C(N)=O)o1,55.2,-1.05
O=C(Nc1ccccc1Cl)N1CCN(C/C=C/c2ccccc2)CC1,0.535,-0.95
CCC(=O)N(Cc1cccc(Cl)c1)c1ccc2[nH]c(C(C)(C)C)cc2c1,0.425,.
CCc1ccc(C2(O)CC(C(F)(F)F)=NN2C(=O)c2cccc(OC)c2)cc1 (centres undefined),-0.34,.
Nn1c(COc2ccccc2)n[nH]c1=S,.,-0.75
Cc1ccc2onc(CC(=O)NCc3cccc(Cl)c3)c2c1,0.87,-0.7
Cc1nc2cc(-c3ccccc3)nn2c(C)c1CCC(=O)NCc1ccco1,3.52,-1.25
COc1ccc(C(=O)CSc2nnc(-c3ccco3)c(-c3ccco3)n2)cc1,0.2,0.75

# Pulled by structure from above, 3 records:
SMILES,CapD inh,AID504770
Cc1ccc(C=Nc2ccccc2C(N)=O)o1,55.2,-1.05
CCSc1nnc(-c2c[nH]c3ccccc23)n1-c1cccc(OC)c1,-0.3,-0.4
Cc1ccc2onc(CC(=O)NCc3cccc(Cl)c3)c2c1,0.87,-0.7

# (further entries)
SMILES,CapD inh,AID504770
CCC(=O)Nc1ccc(F)c(Cl)c1,0.475,.
COc1ccccc1Nc1c2c(nc3ccc(NC(=O)CCN4CCOCC4)cc13)CCCC2,0.835,.
O=C1NN=C(c2ccccc2)Cn2c1cc1ccccc12,.,1.3
O=C(NCc1ccco1)c1n[nH]c(=O)c2ccccc12,0.22,0.25
CCN(CC)c1cc(Oc2ccccc2)ncn1,0.095,0.05
COc1ccc(Nc2nc3nonc3nc2Nc2c(C)n(C)n(-c3ccccc3)c2=O)cc1,0.16,.
CCOC(=O)CSc1nnc(Nc2ccccc2C)s1,.,1.2
CSc1cccc(NC(=O)CC(C)S(=O)(=O)c2ccc3c(c2)OCC(=O)N3)c1 (centres undefined),-0.08,1.15
COc1ccc([N+](=O)[O-])c(OC)c1C(N)=O,-0.245,.
O=C(CSc1nnc(-c2cccnc2)o1)N(C1CCCCC1)C1CCCCC1,.,-0.9
COc1ccc2[nH]cc(CCNC(=O)OCCC3CCCCC3)c2c1,1.83,.
CC(=O)Nc1ccc(C(C)(C)C)cc1N,0.165,-0.35
CCOC(=O)N1CCC(N2Cc3cccc(C(=O)Nc4cc(F)ccc4F)c3C2=O)CC1,-0.145,-0.45
Cc1ccc2[nH]cc(CCNC(=O)OCC3CCCN(Cc4ccccc4SC(C)(C)C)C3)c2c1 (centres undefined),0.015,.
Nc1ccc(Oc2ccccc2F)nc1,17.1,.
CN(Cc1ccccc1)C(=O)COC(=O)c1ccc(Br)o1,-0.015,-0.6
N#CC1=C(N)OC2=C(C(=O)CCC2)C12C(=O)Nc1ccc(Br)cc12 (centres undefined),0.01,.
COc1cc2c(cc1OC)CN(C(=O)Cn1c(C)cc(C)c(C#N)c1=S)CC2,2,-0.45
CCOC(=O)c1sc(N)c(C#N)c1COC(=O)CC1Sc2ccccc2NC1=O (centres undefined),.,1
Clc1cc2c(c3ncccc13)OCN(C1CCCC1)C2,0.46,0.55
CC1CC[C@]2(NC1)O[C@H]1C[C@H]3[C@@H]4CC[C@H]5C[C@@H](O)CC[C@]5(C)[C@H]4CC[C@]3(C)[C@H]1[C@@H]2C (some centres undefined),13.8,.
COc1ccc(NC(=O)c2sc3ncn(CC(=O)N4CCN(c5ccccn5)CC4)c(=O)c3c2C)c(OC)c1,-0.2,.
CC(C)(C)OC(=O)N1CCN(C(=O)c2ccccc2C(=O)O)CC1,0.6,0.6
CC1(C)c2ccccc2N2CC(=O)NC21/C=C/c1cccc2ccccc12 (centres undefined),-0.135,.
Cc1nc2ccccc2n1C(F)(F)C(O)c1ccco1 (centres undefined),-0.16,-0.7
COCCNC(=O)c1ccc2c(=O)n(Cc3ccco3)c(SCC(=O)NCCC3=CCCCC3)nc2c1,0.65,.
CC(CNS(=O)(=O)c1ccccc1)(c1ccccc1)N1CCCCC1 (centres undefined),-0.07,-4.1*
O=C(c1ccc2c(c1)[nH]c(=S)n1c3ccccc3nc21)N1CCN(c2ccccc2)CC1,-0.145,.
COc1ccc(CNC(=O)CCC(=O)Nc2nc(-c3cc4ccccc4oc3=O)cs2)cc1,0.78,.
Cc1cccc(-n2c(SCC(=O)O)nnc2-c2cccs2)c1C,-0.035,1.05
C=CCNC(=O)CN1C(=O)/C(=C/c2ccccc2)Sc2ccccc21,0.55,0.95
COc1cccc(OC)c1C(=O)NC(=O)Nc1c(C)cccc1C,-0.09,-0.65
COC(=O)Oc1ccc2c(=O)c(Oc3ccc(C)cc3)coc2c1,-0.815,1.1
Nc1n[nH]c(CC2CCCCC2)n1,.,-0.45
CN(C(=S)NCc1ccc2c(c1)OCO2)C1CCS(=O)(=O)C1 (centres undefined),.,-0.6
CC1(O)CCCCCCCCCCC1,-0.445,.
CN(CCC#N)C(=O)C1CC(=O)N(Cc2ccco2)C1 (centres undefined),.,-0.75
CC(=O)Nc1nnc(SCc2cccc(C(F)(F)F)c2)s1,0.25,-1.05
Cc1cnc(C(=O)Nc2ccc(Cl)cc2C(=O)c2ccccc2)cn1,-1.22,0.05
CCN(C1CCCCC1)S(=O)(=O)c1ccc(C)cc1,-0.065,-0.6
N#Cc1ccc(/C=N/NC=O)cc1,.,0.6
COc1ccc(NC(=O)C2CC(=O)N/C(=N/N=C/c3ccccc3)S2)cc1 (centres undefined),-0.435,2.2
CCn1c(C(=O)O)c(CC(=O)N(C)c2cc(Cl)c(OC)cc2OC)c2ccccc21,0.135,.
CC(C)CCNc1ncnc2c1nnn2Cc1ccccc1,.,0.5
O=C(Nc1nc(-c2ccc3c(c2)OCCO3)cs1)c1ccccc1,0.275,0.05
O=C(NCC(F)(F)F)C1COc2ccccc2O1 (centres undefined),.,0
O=S(=O)(Nc1cccc(I)c1)c1cccs1,-0.045,1.3
COC(=O)c1cc(S(=O)(=O)N(C)C2CCCCC2)c[nH]1,-0.425,0.05
Cc1cc(C)nc(N(C(=O)C2CC2)c2ccc(C(F)(F)F)cc2)n1,0.145,.
CCOC(=O)c1oc2ccccc2c1NC(=O)CSc1nnc(SCC)s1,.,0.15
NS(=O)(=O)c1ccc(S(=O)(=O)N(Cc2ccccc2F)CC2CCCO2)cc1 (centres undefined),.,-0.85
Cc1cc(Cl)ccc1OCC(=O)N/N=C/c1ccc(C(F)(F)F)cc1F,-0.71,.
CCCNC(=O)c1c(C)oc2ncnc(N3CCCCC3)c12,-0.165,0
O=C(NC1CCCCC1)C1c2ccccc2C(=O)N1Cc1ccco1 (centres undefined),-0.32,-0.55
CCOC(=O)c1cc(-c2ccc(/C=C3\C(=O)N(c4cccc(C(=O)O)c4)N=C3C)o2)ccc1Cl,0.48,.
O=C(CO/N=C/c1ccccc1)N=Nc1c(O)n(CN2CCCC2)c2ccccc12,-0.18,0.55
COC(=O)c1cc(-c2cc(OC)c(OC)c(OC)c2)nn1-c1ccccn1,.,-0.85
O=C(NC1CCCCC1)C(c1cccs1)N(C(=O)CC1CC2CCC1C2)c1ccccc1 (centres undefined),-0.85,2.4
Cc1cc(C)c(C#N)c(SC2CCc3ccccc3C2=O)n1 (centres undefined),-0.75,-1.2
CCOC(=O)CSc1nnc(-c2ccc3ncccc3c2)n1C,0.5,-1.25
O=C(Nc1ccncc1)c1cc2cccnc2n(Cc2ccccc2)c1=O,.,-0.65
